High-throughput results (PubChem BioAssay)
HPGD block – blocks human HPGD enzyme activity; Potency, µM, without a hit: at the highest dose activity change, negative = inhibition, most hits filed as inhibitors; 150,000 compounds, 4.3% hits; purified HPGD, NADH fluorescence kinetic, PGE2 substrate; active = well fitted inhibition curve with a large enough effect (not every such curve was filed as active); inconclusive = small, poorly fitted or top-dose-only effect, or another doubt; inactive = no such curve, though single readings can be large or run the other way;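 note: top concentration of the series not given in the record; plate controls included wells without enzyme; inactives centre near -10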
Target sequence (P15428 whole entry, looked up): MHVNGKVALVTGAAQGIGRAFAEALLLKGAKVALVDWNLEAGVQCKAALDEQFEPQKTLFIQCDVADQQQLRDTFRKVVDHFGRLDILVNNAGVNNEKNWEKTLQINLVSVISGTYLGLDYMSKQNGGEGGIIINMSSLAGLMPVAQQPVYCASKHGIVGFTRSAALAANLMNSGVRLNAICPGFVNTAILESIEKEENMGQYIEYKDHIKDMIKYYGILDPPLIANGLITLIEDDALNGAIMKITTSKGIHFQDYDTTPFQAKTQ
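NADH formation kinetics: reaction with 30 uM PGE2 and 1 mM NAD+ (final), 20 nM enzyme, Tris-HCl pH 8 with Tween 20, after 15 min compound preincubation at room temperature. Fluorescence change, last versus first of five reads.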
An asterisk follows results filed as active; ? = inconclusive. % is set by controls: 0 for no effect and ±100 for the full control effect; potency is the fitted concentration of half-maximal effect. This is a subset; rates above refer to the full screens.

Start of the data: the first 22 records, ahead of the listing:
SMILES	HPGD block
O=C(COc1ncnc2ccccc12)NCCCN1CCCC1=O	-26%
COc1cc2[nH]c(=O)n3nc(-c4ccccc4)nc3c2cc1OC	?
N#Cc1ccc(CN2CCC3(CC2)CCN(S(=O)(=O)c2ccccc2)CC3)cc1	-5%
CCOC(=O)Cn1c(CN2CCN(c3cccc(Cl)c3)CC2)nc2c1c(=O)[nH]c(=O)n2C	-9%
CN(Cc1cccc(Cl)c1Cl)c1ccc(S(=O)(=O)N2CCCCC2)cc1[N+](=O)[O-]	-9%
CCOc1c2ccc(C(=O)NCCc3cccs3)cc2nn1CC	?
CCN1CCN(C(c2ccc(F)cc2)c2nnnn2Cc2cccs2)CC1 (stereo unspecified)	-12%
CCC1(CC)Cc2ccccc2C(CC(=O)N2CCOCC2)=N1	-5%
Cc1ccc(C)c(OCC(=O)Nn2c(C)nc3ccccc3c2=O)c1	-8%
O=C(N/N=C/c1c[nH]c2ccccc12)c1ccn(Cc2ccc(Cl)cc2Cl)n1	?
O=C1NC(=O)[C@@](Cc2ccccc2)(c2cccnc2)N1	-8%
O=C(CSc1nc2ccccc2c(=O)n1-c1ccccc1)NCc1ccco1	-25%
CCC(C)C1C(C#N)=C(N)Oc2n[nH]c(C)c21 (stereo unspecified)	-3%
O=C(c1ccc(Cl)s1)N1CCN(c2ccccc2)CC1	-19%
COc1cccc([C@@H]2Oc3ccc(OC)cc3C[C@H]2OC(=O)NCc2ccco2)c1	-16%
Cc1occc(=O)c1OC(=O)Nc1ccccc1	-6%
Cc1noc(C)c1CSc1ncnc2sc(C)c(C)c12	-30%
COc1ccc(-c2cc(-c3cccs3)c(C#N)c(SCC(=O)NCc3ccco3)n2)cc1	?
N#Cc1c(SCc2ccc(Cl)cc2)sc(C(=O)c2ccccc2)c1N	?
O=C(Nc1ccccc1)Nc1nncs1	-2%
CC(=O)N1CCN(c2ccc(NC(=O)c3cccc(OCc4ccccc4)c3)cc2)CC1	-18%
CCOC(=O)c1ccccc1NC(=O)c1ccc(NS(C)(=O)=O)cc1	16µM*

This part in full (from the top)
SMILES	HPGD block
O=C(COc1ncnc2ccccc12)NCCCN1CCCC1=O	-26%
COc1cc2[nH]c(=O)n3nc(-c4ccccc4)nc3c2cc1OC	?
N#Cc1ccc(CN2CCC3(CC2)CCN(S(=O)(=O)c2ccccc2)CC3)cc1	-5%
CCOC(=O)Cn1c(CN2CCN(c3cccc(Cl)c3)CC2)nc2c1c(=O)[nH]c(=O)n2C	-9%
CN(Cc1cccc(Cl)c1Cl)c1ccc(S(=O)(=O)N2CCCCC2)cc1[N+](=O)[O-]	-9%
CCOc1c2ccc(C(=O)NCCc3cccs3)cc2nn1CC	?
CCN1CCN(C(c2ccc(F)cc2)c2nnnn2Cc2cccs2)CC1 (stereo unspecified)	-12%
CCC1(CC)Cc2ccccc2C(CC(=O)N2CCOCC2)=N1	-5%
Cc1ccc(C)c(OCC(=O)Nn2c(C)nc3ccccc3c2=O)c1	-8%
O=C(N/N=C/c1c[nH]c2ccccc12)c1ccn(Cc2ccc(Cl)cc2Cl)n1	?
O=C1NC(=O)[C@@](Cc2ccccc2)(c2cccnc2)N1	-8%
O=C(CSc1nc2ccccc2c(=O)n1-c1ccccc1)NCc1ccco1	-25%
CCC(C)C1C(C#N)=C(N)Oc2n[nH]c(C)c21 (stereo unspecified)	-3%
O=C(c1ccc(Cl)s1)N1CCN(c2ccccc2)CC1	-19%
COc1cccc([C@@H]2Oc3ccc(OC)cc3C[C@H]2OC(=O)NCc2ccco2)c1	-16%
Cc1occc(=O)c1OC(=O)Nc1ccccc1	-6%
Cc1noc(C)c1CSc1ncnc2sc(C)c(C)c12	-30%
COc1ccc(-c2cc(-c3cccs3)c(C#N)c(SCC(=O)NCc3ccco3)n2)cc1	?
N#Cc1c(SCc2ccc(Cl)cc2)sc(C(=O)c2ccccc2)c1N	?
O=C(Nc1ccccc1)Nc1nncs1	-2%

Some values from above:
O=C(Nc1ccccc1)Nc1nncs1 in HPGD block is listed with -2%
N#Cc1ccc(CN2CCC3(CC2)CCN(S(=O)(=O)c2ccccc2)CC3)cc1 in HPGD block is listed with -5%

The list continues.
SMILES	HPGD block
CC(=O)N1CCN(c2ccc(NC(=O)c3cccc(OCc4ccccc4)c3)cc2)CC1	-18%
CCOC(=O)c1ccccc1NC(=O)c1ccc(NS(C)(=O)=O)cc1	16µM*
O=C(c1ccccc1F)N1CCN(c2ccccc2F)CC1	-11%
CCOC(=O)c1c(C)c(C(=O)N(C)C2CCCCC2)c(C)n1C	-18%
Cc1cc(NC(=O)CSc2nnc(-c3ccoc3C)o2)no1	-13%
CCOC(=O)COc1cc(Br)c(/C=N/Nc2ccccc2)cc1OC	-13%
Cc1ccc(C(=O)N/C(N)=N/c2nc3ccccc3o2)cc1	-13%
COc1cc(CNC2CCCCC2OC)cc(OC)c1OC (stereo unspecified)	-7%
Cc1c(NC(=O)C2CCCO2)cccc1[N+](=O)[O-] (stereo unspecified)	-3%
CC1C(=O)CC(c2ccccc2)N(C)C1c1ccccc1 (stereo unspecified)	-18%
CS(=O)(=O)Nc1ccc(S(=O)(=O)NCCc2ccccc2)cc1	-10%
N/C(=N\OC(=O)CCCOc1ccccc1)c1ccccc1	-4%
CS(=O)(=O)C1=C(O)C(=O)N(CCCC(=O)O)C1c1ccccc1F (stereo unspecified)	-6%
N#Cc1c(Cl)cccc1-n1ccnc1	-8%
C=CCSc1nc(N)c(C(=O)Nc2ccccc2)cc1C#N	?
CC1(C)CC(=O)C(C(c2ccc(F)cc2)C2C(=O)CC(C)(C)CC2=O)C(=O)C1	-7%
CCCCN(CC)c1nc(N)c2c(N)nc(OCC)cc2c1C#N	?
S=C(NCc1ccco1)Nc1ccc(N2CCOCC2)cc1	-23%
c1cc2cn[nH]c2cc1NC1CCCCCC1	-24%
Cc1ccc(/C=C/C(=O)OCC(=O)Nc2cccc(S(=O)(=O)N(C)C)c2)o1	-1%
c1ccc(Cc2nnc(N3CCOCC3)c3ccccc23)cc1	25µM*
N/C(=N\OC(=O)c1ccc(Br)cc1)c1ccccc1	-8%
CC1CN(S(=O)(=O)c2ccccc2)CC(C)O1 (stereo unspecified)	-3%
CCC(=O)Nc1ccc(Cl)c(NC(=S)NC(=O)COc2ccccc2)c1	-16%
O=C(NCCN1CCOCC1)C1CCC(=O)N1Cc1ccccc1Cl (stereo unspecified)	1%
CCOC(=O)C1=C(N)Oc2cc(C)[nH]c(=O)c2C1c1ccncc1 (stereo unspecified)	0%
Cc1ccc(S(=O)(=O)N2CCOCC2)cc1C(=O)NCCN1C(=O)S/C(=C\c2ccccc2Cl)C1=O	-14%
CCCc1noc2c1/C(=N\O)CC(CC(C)SCC)C2 (stereo unspecified)	8.9µM*
COc1ccc(OC)c(NC(=O)c2[nH]c(C)c(C(C)=O)c2C)c1	-3%
CC(C)(C)NC(=O)NC(=O)COC(=O)c1ccc(OC(F)(F)F)cc1	?
Cc1ccc(NC(=O)COC(=O)C(NS(=O)(=O)c2ccc(Cl)cc2)C(C)O)cc1C (stereo unspecified)	-7%
Cc1cc(C)c(OCC(=O)Nc2cccc(NC(=O)c3ccco3)c2)c(Br)c1	-10%
COc1cc(NS(=O)(=O)c2ccc(NC(C)=O)cc2)ncn1	-7%
O=C(O)c1cccn2c(=O)c3ccccc3nc12	-15%
Cc1ccccc1CSc1nnc(-c2ccco2)n1Cc1ccco1	-11%
CC(C)C[C@H](N)C(=O)O	-2%
O=C(C1=NN(c2ccccc2)C2C(=O)N(c3cccc(Cl)c3)C(=O)C12)c1ccccc1 (stereo unspecified)	-22%
COc1ccc2c(c1OC)C(=O)OC2CC(=O)O (stereo unspecified)	?
CCC1=C2CC[C@H]3C(=O)N(c4ccccc4)C(=O)[C@H]3[C@H]2[C@@]2(Cc3ccccc3)C(=NCC3CC3)OC(=O)N2C1=O	-4%
Nc1cc(Cl)nc(N/N=C/c2ccccc2[N+](=O)[O-])n1	2%
Cc1ccccc1-c1nnc(SCC(=O)Nc2ccc(Cl)cc2)n1N	-7%
Cc1ccccc1C(=O)/C(C#N)=N/Nc1c(C)n(C)n(-c2ccccc2)c1=O	-6%
CCOC(=O)c1sc(NC(=O)CSc2n[nH]c(-c3ccncc3)n2)c(C#N)c1C	5µM*
COc1ccccc1N(CC(=O)N/N=C(\C)c1cccc(Br)c1)S(C)(=O)=O	-5%
COc1cccc(C(=O)N2CCSC2=S)c1	-8%
Nc1nc2ccccc2n1C(=O)CCc1ccccc1	4%
Cc1c(C(=O)N2CCOCC2)oc2ccc(S(=O)(=O)N3CCCCCC3)cc12	-16%
CCOC(=O)C1CCCN(c2c(N3CCN(C)CC3)c(=O)c2=O)C1 (stereo unspecified)	-26%
Cc1ccc(NC(=O)/C(=C\C=C\c2ccccc2)NC(=O)c2ccccc2)cc1	-19%
CCCC(=O)c1ccc(N2CCCCCC2)c(F)c1	16µM*
CCCN(CCC)C(=O)Cn1c(=O)n(CCCCC(=O)NCc2ccco2)c(=O)c2ccccc21	-14%
Cc1ccnn2c(-c3ccccc3)c3c(=O)n(C)c(=O)n(C)c3c12	-12%
Cc1ccccc1NC(=O)c1sc2nc3c(c(-c4ccco4)c2c1N)CCC3	-17%
S=C(Nc1ccc2cn[nH]c2c1)Nc1ccccc1Cl	-15%
Cc1noc(C)c1C(=O)OC(C(=O)NC1CCCC1)c1ccc(F)cc1 (stereo unspecified)	-12%
CCCCNC(=O)Nc1ccccn1	-11%
CC1CCN(S(=O)(=O)c2ccc(NC(=O)Cc3cccs3)cc2)CC1	-13%
COc1ccc(-c2nnc3n2C(C)(C)Cc2cc(OC)c(OC)cc2-3)cc1	-19%
c1ccc(SCCCCNC2CCCC2)cc1	7%
CC(C)COc1ccc(C(=O)OCCN2CCOCC2)c(O)c1	-4%
Following part
SMILES	HPGD block
COc1ccc(S(=O)(=O)N2CCCCCC2)cc1C(=O)OCC(=O)NC(N)=O	-8%
Cc1cc(C)nc(SC(C)C(=O)N/N=C/c2cccs2)n1 (stereo unspecified)	0%
CCOc1ccc(NC(=O)C(C)Sc2nnnn2C)cc1 (stereo unspecified)	-3%
Cn1c(C(=O)NC2CC2)cc2c(=O)n(C)c3ccccc3c21	-26%
CCOC(=O)Cc1cnc(NC(=O)NC(C(=O)OCC)(c2ccccc2)C(F)(F)F)s1 (stereo unspecified)	-1%
CCOC(=O)c1ccc(NC(=O)CCOc2ccc(OC)cc2)cc1	-13%
Cc1[nH]c2ccccc2c1/C=C(\C#N)C(=O)NCc1ccccc1	-13%
Cc1ccc(CCNC(=O)CCc2nc3ccccc3[nH]2)cc1	-9%
O=C(Cc1cccs1)N1CCN(c2ccccn2)CC1	?
CCc1ccc(C(=O)COC(=O)C(Cc2ccccc2)NC(=O)C2CCC(C)CC2)cc1 (stereo unspecified)	-2%
CCOc1cc(NC(=O)c2cccs2)c(OCC)cc1NC(=O)c1ccco1	-15%
O=C(NC(Cc1c[nH]c2ccccc12)C(=O)Nc1ccc(F)cc1)c1cccs1 (stereo unspecified)	-11%
CCOC(=O)N1CCN(CCC(=O)Nc2ccc(Br)cc2)CC1	-4%
CCOC(=O)CCCNC(=O)CN1C(=O)NC(CCc2ccccc2)C1=O (stereo unspecified)	-3%
COc1ccc(OC)c(-c2nnc(NC(=O)C(C)Sc3nncn3C)s2)c1 (stereo unspecified)	?
Cc1ccc(/C=C/C(=O)Nc2nnc(C)s2)o1	?
O=C(c1cccc(N2C(=O)C3CC=CCC3C2=O)c1)N1CCCCCC1 (stereo unspecified)	-26%
CSCCC(NC(=O)c1cc(C)oc1C)C(=O)O (stereo unspecified)	-7%
COCC(=O)Nc1cc(C(=O)NCC(C)C)ccc1Cl	?
CCCNC(=O)CCC(=O)Nc1ncc(-c2ccc(C)cc2)n1C	-5%
Cc1ccc(NC(=O)c2sccc2C)cc1S(=O)(=O)N(C)C	-14%
Cc1oc(/N=C/c2c(O)ccc3ccccc23)c(C#N)c1C	-13%
CS(=O)(=O)N(CC(=O)N1CCCC1)c1ccc2c(c1)OCCO2	-1%
O=C(O)C1[C@H]2C(=O)N(Cc3cccs3)C[C@]23C=C[C@H]1O3 (stereo partly specified)	-4%
CCOC(=O)c1cc(C)sc1NC(=S)Nc1ccccc1	-12%
OC(CNCCc1ccc(Cl)cc1)COCc1ccco1 (stereo unspecified)	-3%
COc1ccc2cc(C(=O)c3ccccc3)c(=O)oc2c1	-12%
Cc1cc(C)n2c(Nc3ccc4c(c3)OCCO4)c(-c3ccccc3)nc2n1	-12%
CCn1c(=O)c(C(=O)NC(C)C)c(O)c2ccccc21	-17%
COc1ccc(NC(=S)N2N=CCC2c2ccccc2)cc1 (stereo unspecified)	3%
COc1ccc(-c2csc(/C=C/c3ccc4c(c3)OCO4)n2)cc1OC	0%
Cn1c(=O)[nH]c(=O)c2c1ncn2CCCc1ccccc1	-14%
O=C1N/C(=C/c2ccc(N3CCOCC3)o2)C(=O)N1c1ccccc1	?
CCCn1c(C)cc(C(=O)CSc2nc3nc(C)cc(C)n3n2)c1C	-3%
COc1ccc2oc(=O)c(C(=O)N3CCN(c4ccccc4F)CC3)cc2c1	?
CC(C)CCOC(=O)C1C(c2ccccc2)C(C(=O)O)C1c1ccccc1 (stereo unspecified)	7%
Cc1cc(=O)oc2n[nH]c(-c3ccccc3)c12	?
CCOC(=O)N1CCN(C(=O)C(CC(C)C)NC(=O)C2CCCCC2)CC1 (stereo unspecified)	-9%
O=C(O)/C=C/c1cn(-c2ncc(C(F)(F)F)cc2Cl)c2ccccc12	2µM*
O=C(C[n+]1cc(-c2ccc(F)cc2)n2c1CCC2)OCc1ccccc1	0%
Cc1cc(C)n(-c2nc3sc4c(c3c(=O)[nH]2)CCCC4)n1	-4%
COc1ccc(C(=O)Oc2ccc3oc(=O)sc3c2)cc1	2%
Cn1c(=O)c2c(ncn2CC(=O)N2CCN(c3cccc(Cl)c3)CC2)n(C)c1=O	-8%
O=C(COc1ccccc1)Nc1cccc2nsnc12	?
O=C(O)c1cc2c(ccc3ccccc32)o1	?
Cc1cccc(C)c1OC(=O)CSc1nnc(-c2ccccc2)o1	0%
C/C(=C1/SC(N2CC(C)OC(C)C2)=NC1=O)c1ccccc1 (stereo unspecified)	-9%
Cn1cc(C(=O)Nc2ccc(F)c(F)c2)cn1	-3%
